Vaccinia stage: blocks a specific stage of Vaccinia orthopoxvirus infection, primary screen, cell-based, single point; AID 1053133, 2014; activity change (mCherry), % (test concentration not listed); 0.01% of 89,000 active; Vaccinia-infected cells, mCherry/Venus stage reporter fluorescence; hits give low values; some inactives read as strong as hits;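 active = mCherry past -33% and 40 or more points under the early reporter, replicates agreeing; inconclusive = past -33% without that gap or agreement; tested in A549 cells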;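 note: scaled between vehicle wells and reference inhibitor wells; 23 nL library stock went into each well; one replicate is shown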
Vaccinia stage Venus: recorded beside Vaccinia stage, whose call it bears; activity change (Venus), %; measured here: Venus reporter, other viral stage;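 negative = less Venus signal; first of two replicates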
An asterisk follows results filed as active; ? = inconclusive; nt = not tested or not shown.

Every second line gives: Vaccinia stage | Vaccinia stage Venus
COc1ccc(NC(=O)Nc2ccc3c(c2)C(=O)N([C@H](C)CO)C[C@H](C)[C@@H](CN(C)S(=O)(=O)c2cccs2)O3)cc1
    -4 | 6
COc1ccc(S(=O)(=O)Nc2ccc3c(c2)C(=O)N([C@H](C)CO)C[C@@H](C)[C@H](CN(C)Cc2ccc4c(c2)OCO4)OCCCC[C@H](C)O3)cc1
    ? | nt
C[C@H]1CN([C@@H](C)CO)C(=O)c2cccc(NC(=O)C3CCOCC3)c2O[C@H]1CN(C)CC1CCCCC1
    8 | 6
CCC(=O)Nc1ccc2c(c1)OC[C@@H](C)N(Cc1cccc(F)c1)C[C@H](C)[C@H](OC)CN(C)C2=O
    -14 | -14
C[C@H](CO)N1C[C@H](C)[C@H](CN(C)C(=O)Nc2ccc3c(c2)OCO3)OCCCC[C@H](C)Oc2ccc(NS(=O)(=O)c3cccs3)cc2C1=O
    -11 | -10
CC(C)C#Cc1cnc2c(c1)C(=O)N([C@H](C)CO)C[C@@H](C)[C@@H](CN(C)Cc1ccccc1F)O2
    -6 | -3
C[C@H](CO)N1C[C@H](C)[C@H](CN(C)C(=O)c2ccccc2)Oc2cc(/C=C/c3ccccc3)ccc2S1(=O)=O
    ? | nt
Cc1noc(C)c1S(=O)(=O)Nc1ccc2c(c1)C(=O)N([C@@H](C)CO)C[C@H](C)[C@@H](CN(C)C(=O)Cc1ccccc1)OCCCC[C@H](C)O2
    -3 | -8
C[C@H]1CN([C@@H](C)CO)C(=O)c2cc(NC(=O)CCC(F)(F)F)ccc2O[C@H]1CN(C)C(=O)NC1CCCCC1
    18 | 9
NCC[C@H]1CC[C@H](NC(=O)Nc2ccc(F)cc2)[C@@H](CO)O1
    0 | -1
C[C@@H]1CN([C@H](C)CO)C(=O)c2cc(C#CCc3ccccc3)cnc2O[C@H]1CN(C)Cc1ccccc1
    -16 | -13
O=C(C[C@H]1CC[C@H]2[C@@H](COC[C@@H](O)CN2Cc2ccc(F)cc2)O1)N1CCc2ccccc2C1
    ? | nt
C[C@@H]1CN([C@@H](C)CO)C(=O)c2cc(NS(=O)(=O)c3ccc(F)cc3)ccc2O[C@@H](C)CCCCO[C@H]1CN(C)C(=O)C1CCCCC1
    ? | nt
C[C@H](CO)N1C[C@H](C)[C@@H](CN(C)S(=O)(=O)c2cccs2)Oc2ccc(NS(=O)(=O)c3cn(C)cn3)cc2C1=O
    30 | 10
COCC(=O)Nc1ccc2c(c1)C(=O)N(C)C[C@H](OC)[C@@H](C)CN(CCC(F)(F)F)[C@H](C)CO2
    8 | 6
O=C(Nc1ccc2c(c1)[C@H]1C[C@H](CC(=O)N3CCCCC3)O[C@H](CO)[C@H]1O2)C1CCOCC1
    -5 | -3
O=C(C[C@H]1C[C@H]2c3cc(NS(=O)(=O)c4ccc(F)cc4)ccc3O[C@H]2[C@H](CO)O1)NCc1ccccc1F
    -5 | -6
C[C@@H]1CN([C@@H](C)CO)S(=O)(=O)c2ccc(C3=CCCC3)cc2O[C@H]1CN(C)C(=O)CC1CC1
    2 | 2
C/C=C/c1ccc2c(c1)O[C@@H](CN(C)C(=O)Cc1ccccn1)[C@H](C)CN([C@H](C)CO)S2(=O)=O
    9 | 9
C[C@@H]1CN([C@@H](C)CO)C(=O)c2cc(NS(=O)(=O)c3ccc(F)cc3)ccc2O[C@@H](C)CCCCO[C@@H]1CN(C)Cc1ccc(C(=O)O)cc1
    35 | 17
C/C=C/c1ccc2c(c1)O[C@H](CN(C)C(=O)Nc1cc(F)ccc1F)[C@@H](C)CN([C@@H](C)CO)S2(=O)=O
    ? | nt
C[C@H]1CN([C@@H](C)CO)C(=O)Cc2cc(NC(=O)Nc3ccc(F)cc3)ccc2O[C@@H]1CN(C)C(=O)Nc1cccc2ccccc12
    14 | 25
C[C@H]1CCCCO[C@H](CN(C)C(=O)Nc2ccccc2)[C@@H](C)CN([C@@H](C)CO)C(=O)c2cc(N(C)C)ccc2O1
    -2 | -1
O=C(C[C@@H]1CC[C@@H](NC(=O)CN2CCOCC2)[C@H](CO)O1)NCCc1ccncc1
    1 | 9
C[C@H](CO)N1C[C@H](C)[C@@H](CN(C)C(=O)NC2CCCCC2)Oc2ccc(NS(C)(=O)=O)cc2CC1=O
    -4 | 3
CNC[C@H]1Oc2cc(C#Cc3cccc(F)c3)ccc2S(=O)(=O)N([C@@H](C)CO)C[C@H]1C
    -20 | -9
O=C(CN1CCOCC1)NCC[C@H]1CC[C@H](NS(=O)(=O)c2ccc(Cl)cc2)[C@@H](CO)O1
    8 | 9
C/C=C/c1ccccc1[C@@H]1[C@H](C#N)N(S(=O)(=O)c2cccc(F)c2)[C@H]1CO
    9 | 11
C[C@@H]1CN([C@@H](C)CO)C(=O)c2cc(NC(=O)NC3CCCCC3)ccc2O[C@@H](C)CCCCO[C@@H]1CN(C)Cc1ccc(C(=O)O)cc1
    14 | 8
COc1ccc(NC(=O)N(C)C[C@@H]2Oc3ccc(NS(=O)(=O)c4cn(C)cn4)cc3CC(=O)N([C@@H](C)CO)C[C@H]2C)cc1
    -12 | -17
COc1ccc(C#Cc2cnc3c(c2)C(=O)N([C@@H](C)CO)C[C@@H](C)[C@@H](CN(C)C(C)=O)O3)cc1
    5 | 13
COc1ccc(C#Cc2cnc3c(c2)C(=O)N([C@@H](C)CO)C[C@@H](C)[C@@H](CN(C)C(=O)c2ccccc2F)O3)cc1
    -20 | -20
C[C@H]1CN([C@@H](C)CO)C(=O)c2cccc(NS(C)(=O)=O)c2O[C@H]1CN(C)C(=O)Nc1ccc(C(F)(F)F)cc1
    5 | 4
C[C@@H]1CN([C@H](C)CO)C(=O)c2cc(NS(=O)(=O)c3cn(C)cn3)ccc2O[C@@H]1CN(C)Cc1ccccc1
    12 | 9
COc1ccc(CN(C)C[C@@H]2Oc3ccc(NC(=O)c4ccncc4)cc3CC(=O)N([C@@H](C)CO)C[C@@H]2C)cc1
    11 | 2
CC=Cc1ccc2n(c1=O)C[C@@H]1[C@@H](CO)[C@H](C(=O)OC)N(Cc3ccccc3)[C@H]21 (mixture of isomers)
    -1 | 13
O=C(C[C@H]1C[C@H]2c3cc(NS(=O)(=O)c4ccc(F)cc4)ccc3O[C@H]2[C@H](CO)O1)NCc1ccncc1
    5 | 9
O=C(C[C@@H]1C=C[C@@H](NS(=O)(=O)c2ccc(F)cc2)[C@@H](CO)O1)N1CCc2ccccc2C1
    17 | 15
CCCN(C)C[C@H]1Oc2cc(C3=CCCCC3)ccc2S(=O)(=O)N([C@H](C)CO)C[C@H]1C
    -26 | -14
Cc1noc(C)c1S(=O)(=O)N(C)C[C@@H]1Oc2ccc(NC(=O)Nc3ccc4c(c3)OCO4)cc2CC(=O)N([C@@H](C)CO)C[C@@H]1C
    7 | 7
Cc1ccc(S(=O)(=O)N(C)C[C@H]2Oc3ccc(NS(=O)(=O)c4cccs4)cc3C(=O)N([C@@H](C)CO)C[C@@H]2C)cc1
    5 | 1
CNC(=O)C[C@H]1CC[C@H]2[C@@H](COc3ccc(NC(=O)Nc4ccc(C#N)cc4)cc3C(=O)N2C)O1
    11 | 13
C[C@H](CO)N1C[C@H](C)[C@H](CN(C)C(=O)Nc2ccccc2)OCc2cn(nn2)CCCC1=O
    3 | 3
CO[C@@H]1CN(C)C(=O)c2ccc(NC(=O)c3ccc(F)cc3)cc2OC[C@H](C)N(C(=O)CC2CC2)C[C@@H]1C
    0 | 1
C[C@H]1CCCCO[C@@H](CN(C)S(=O)(=O)c2cccs2)[C@@H](C)CN([C@@H](C)CO)C(=O)c2cc(NS(=O)(=O)c3ccccc3)ccc2O1
    -18 | -14
CC(C)C#Cc1ccc([C@H]2[C@H]3CN(CC4CC4)CCCCN3[C@H]2CO)cc1
    -7 | -4
CN1C(=O)c2cc(NC(=O)c3cscn3)ccc2OC[C@@H]2O[C@H](CC(=O)N3CCOCC3)CC[C@@H]21
    11 | 19
C[C@@H]1CN([C@@H](C)CO)S(=O)(=O)c2ccc(C#Cc3ccccn3)cc2O[C@H]1CN(C)Cc1ccc(F)cc1
    -32 | -13
COCC(=O)N1[C@H](C#N)[C@@H](c2ccc(C#Cc3ccccc3F)cc2)[C@H]1CO
    -11 | -8
O=C(NC1CCCCC1)N[C@H]1CC[C@H](CCNS(=O)(=O)c2ccccc2)O[C@@H]1CO
    -6 | -3
COCC(=O)N1[C@H](CO)[C@H]2c3ccccc3N(C(=O)Nc3ccccc3Cl)C[C@H]21
    18 | 5
C[C@H]1CN([C@@H](C)CO)C(=O)c2c(c3ccccc3n2C)-c2ccccc2CO[C@@H]1CN(C)Cc1ccc(C(=O)O)cc1
    11 | 4
C[C@@H]1CN([C@H](C)CO)C(=O)Cc2cc(NC(=O)Nc3ccc4c(c3)OCO4)ccc2O[C@H]1CN(C)C(=O)NC1CCCCC1
    14 | 5
CN1[C@H](CO)[C@@H]2c3ccccc3N(C(=O)C3CCCCC3)C[C@@H]21
    1 | -3
O=C(C[C@@H]1C=C[C@H](NC(=O)c2ccc3c(c2)OCO3)[C@@H](CO)O1)NCc1ccc(Cl)cc1
    6 | 2
COc1ccc(S(=O)(=O)Nc2ccc3c(c2)C(=O)N([C@H](C)CO)C[C@H](C)[C@@H](CN(C)C(=O)Nc2ccc(F)cc2)O3)cc1
    10 | 7
CO[C@H]1CN(C)C(=O)c2ccc(NC(=O)C3CC3)cc2OC[C@@H](C)N(C(=O)C2CCOCC2)C[C@@H]1C
    24 | 19
CO[C@@H]1CN(C)C(=O)c2cc(NC(=O)NC(C)C)ccc2OC[C@@H](C)N(S(C)(=O)=O)C[C@@H]1C
    32 | 20
COc1ccc(S(=O)(=O)Nc2ccc3c(c2)C(=O)N([C@@H](C)CO)C[C@H](C)[C@H](CN(C)Cc2ccc4c(c2)OCO4)OCCCC[C@H](C)O3)cc1
    ? | nt
CCCN(C)C[C@@H]1Oc2ncc(C#Cc3ccccc3)cc2C(=O)N([C@H](C)CO)C[C@@H]1C
    -34 | -26

Structures from the list above that have a cyano group (three):
Every second line gives: Vaccinia stage | Vaccinia stage Venus
C/C=C/c1ccccc1[C@@H]1[C@H](C#N)N(S(=O)(=O)c2cccc(F)c2)[C@H]1CO
    9 | 11
CNC(=O)C[C@H]1CC[C@H]2[C@@H](COc3ccc(NC(=O)Nc4ccc(C#N)cc4)cc3C(=O)N2C)O1
    11 | 13
COCC(=O)N1[C@H](C#N)[C@@H](c2ccc(C#Cc3ccccc3F)cc2)[C@H]1CO
    -11 | -8

Quoted at random: 2 compounds from above, in no set order.
Every second line gives: Vaccinia stage | Vaccinia stage Venus
NCC[C@H]1CC[C@H](NC(=O)Nc2ccc(F)cc2)[C@@H](CO)O1
    0 | -1
Cc1noc(C)c1S(=O)(=O)N(C)C[C@@H]1Oc2ccc(NC(=O)Nc3ccc4c(c3)OCO4)cc2CC(=O)N([C@@H](C)CO)C[C@@H]1C
    7 | 7

The results go on:
Every second line gives: Vaccinia stage | Vaccinia stage Venus
COc1ccc(-c2ccc([C@H]3[C@@H](CO)N4CCCCN(S(=O)(=O)c5cccs5)C[C@H]34)cc2)cc1
    -31 | -30
C[C@@H]1CCCCO[C@H](CN(C)C(=O)NC2CCCCC2)[C@H](C)CN([C@H](C)CO)C(=O)c2cc(NC(=O)CCC(F)(F)F)ccc2O1
    -28 | -20
COc1ccc2c3c([nH]c2c1)[C@@H](CO)N(Cc1nccs1)CC31CCN(Cc2cccnc2)CC1
    13 | 5
COc1ccccc1NC(=O)N1CCCCN2[C@H](CO)[C@H](c3ccc(-c4cccc(F)c4)cc3)[C@@H]2C1
    ? | nt
C[C@@H]1CN([C@@H](C)CO)C(=O)c2cccc(N(C)C)c2O[C@@H]1CN(C)S(=O)(=O)c1cccs1
    -4 | 1
CO[C@@H]1CN(C)C(=O)c2ccc(NC(=O)c3ccc4c(c3)OCO4)cc2OC[C@H](C)N(CC2CC2)C[C@H]1C
    5 | -2
COCC(=O)Nc1ccc2c(c1)C(=O)N(C)[C@@H]1CC[C@@H](CC(=O)NCc3ccccc3F)O[C@@H]1CO2
    -1 | 0
Cc1ccc(S(=O)(=O)N(C)C[C@H]2Oc3c(NS(=O)(=O)c4ccccc4)cccc3C(=O)N([C@@H](C)CO)C[C@@H]2C)cc1
    -2 | 1
C[C@@H]1CN([C@@H](C)CO)C(=O)c2cccc(NS(=O)(=O)c3cccs3)c2O[C@@H]1CN(C)C(=O)Nc1ccc2c(c1)OCO2
    2 | 3
C[C@@H]1CN([C@H](C)CO)C(=O)c2cc(NC(=O)c3ccncc3)ccc2O[C@@H]1CN(C)Cc1ccccc1
    4 | 0
COC(=O)[C@@H]1[C@@H](CO)[C@@H]2Cn3c(cccc3=O)[C@H]1N2C(=O)C1CCC1
    11 | 7
C[C@@H]1CN([C@@H](C)CO)S(=O)(=O)c2ccc(-c3ccccc3)cc2O[C@H]1CN(C)Cc1cccc(F)c1
    ? | nt
C[C@@H]1CN([C@@H](C)CO)C(=O)c2cc(NC(=O)Nc3ccc(C(F)(F)F)cc3)ccc2O[C@@H]1CN(C)Cc1ccc(-c2ccccc2)cc1
    -30 | -27
C[C@@H]1CCCCO[C@@H](CN(C)C(=O)C2CCCCC2)[C@H](C)CN([C@H](C)CO)C(=O)c2cc(NC(=O)c3ccncc3)ccc2O1
    -18 | -18
COc1cccc(-c2ccc3n(c2=O)C[C@@H]2[C@@H](CO)[C@H](C(=O)N(C)C)N(C(=O)C4CCC4)[C@H]32)c1
    25 | 14
COc1cc(CN2CC3(CN(C(=O)Nc4c(C)noc4C)C3)c3c(n(C)c4cc(OC)ccc34)[C@@H]2CO)cc(OC)c1
    40 | 10
CC(C)NC(=O)Nc1ccc2c(c1)C(=O)N([C@H](C)CO)C[C@@H](C)[C@@H](CN(C)Cc1ccc(Cl)c(Cl)c1)OCCCC[C@H](C)O2
    ? | nt

A few values from the results shown.
`COc1ccc2c3c([nH]c2c1)[C@@H](CO)N(Cc1nccs1)CC31CCN(Cc2cccnc2)CC1` | Vaccinia stage Venus: 5
`CO[C@@H]1CN(C)C(=O)c2ccc(NC(=O)c3ccc4c(c3)OCO4)cc2OC[C@H](C)N(CC2CC2)C[C@H]1C` | Vaccinia stage: 5
`C[C@@H]1CCCCO[C@@H](CN(C)C(=O)C2CCCCC2)[C@H](C)CN([C@H](C)CO)C(=O)c2cc(NC(=O)c3ccncc3)ccc2O1` | Vaccinia stage Venus: -18

These rows are one share of the data; the hit share may differ from the screen's.
